Bioassay records from PubChem.
NIH3T3 tox: kills NIH 3T3 cells. AID 1345082. NIH 3T3 viability, CellTiter-Glo ATP luminescence, 48-72 h. Potency, µM (titrated, usually from 96.7 µM), inactives show at the top dose activity change, negative = cytotoxicity, usual class: inhibitors. hit rate 4.3% among 94,000; note: nearly all actives have a fitted effect of over 55% in size
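Cytotoxicity is measured as loss of cellular ATP: NIH 3T3 cells (400/well) are exposed to compound for 48 or 72 hr at 37 °C, then CellTiter-Glo luminescence is imaged after 10 min at room temperature.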
Luciferase inh: blocks purified firefly luciferase enzyme activity | purified P. pyralis luciferase, luminescence, biochemical | Potency, µM (top dose mostly 115 µM), for the others: at the top dose activity change, negative = inhibition, usual class: inhibitors | hit rate 2.5% among 76,000; note: nearly all actives have a fitted effect of over 65% in size
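Purified P. pyralis luciferase (10nM final) in 50mM Tris acetate pH 7.5, 10mM Mg acetate, 0.01% Tween-20, 0.05% BSA with 10uM D-luciferin and 10uM ATP. Compounds titrated qHTS. Luminescence imaged on CCD.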
SNCA expr inh: SNCA gene expression inhibition. HEK-293 SNCA-luciferase knock-in, luminescence, 24 h. Potency, µM (top dose mostly 57.2 µM), without a hit: at the highest dose activity change, negative = inhibition, actives largely listed as inhibitors. hit rate 0.17% among 140,000;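 note: plate controls were DMSO cells for no effect and cell-free wells for full effect; nearly all actives have a fitted effect of over 45% in size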
GPT2 inh: blocks human glutamate pyruvate transaminase 2; Q8TD30; Recombinant GPT2, coupled pyruvate oxidase/HRP Amplex Red fluorescence; Potency, µM (top dose mostly 57.7 µM), without a hit: at the highest dose activity change, negative = inhibition, hits mostly inhibitors; hit rate 0.25% among 100,000; AID 1671188; note: nearly all actives have a fitted effect of over 60% in size; many of its hits are not listed in these tables
Target sequence (Q8TD30 whole entry, looked up): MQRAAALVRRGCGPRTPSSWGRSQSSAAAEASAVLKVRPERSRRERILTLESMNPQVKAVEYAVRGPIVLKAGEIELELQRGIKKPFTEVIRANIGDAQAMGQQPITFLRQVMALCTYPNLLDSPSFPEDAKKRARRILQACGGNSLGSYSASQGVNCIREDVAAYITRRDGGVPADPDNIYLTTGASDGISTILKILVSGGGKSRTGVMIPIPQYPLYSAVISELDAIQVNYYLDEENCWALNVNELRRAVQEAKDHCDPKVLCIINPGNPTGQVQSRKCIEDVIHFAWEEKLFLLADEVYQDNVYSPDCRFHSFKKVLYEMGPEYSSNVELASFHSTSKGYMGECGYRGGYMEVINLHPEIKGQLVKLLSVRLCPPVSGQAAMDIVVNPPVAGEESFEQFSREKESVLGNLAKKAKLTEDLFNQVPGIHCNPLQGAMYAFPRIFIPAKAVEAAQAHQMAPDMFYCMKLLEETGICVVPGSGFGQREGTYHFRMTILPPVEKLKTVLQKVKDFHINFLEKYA
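Inhibition is scored from Amplex Red fluorescence generated when pyruvate oxidase and HRP act on pyruvate released by GPT2. Reactions contain 10ng/uL enzyme, 250uM a-KG and 2mM L-alanine and run 30 min at room temperature.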
HEK cytotox: HEK 293 cell cytotoxicity; HEK 293 viability, ATP luminescence (CellTiter-Glo), 48-72 h; AID 1345083; Potency, µM (doses to about 115 µM), for inactives: top-dose activity change, negative = cytotoxicity, hits mostly inhibitors; hit rate 6.6% among 94,000; note: nearly all actives have a fitted effect of over 60% in size
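Luminescence from cellular ATP, measured with CellTiter-Glo, indicates HEK 293 viability. Cells plated at 250 cells/well are treated with compound for 48 or 72 hr at 37 degree Celsius before reagent addition.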
HEK293 viab: counter-screen for SNCA expression inhibitors: cell viability; AID 1671193; hit rate 0.12% among 150,000; HEK-293-SNCA-luc viability, GF-AFC fluorescence, 24 h; Potency, µM (top dose mostly 57.1 µM), inactives show top-dose activity change, negative = cytotoxicity, hits mostly cytotoxic;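 note: 0% = DMSO-treated cells and -100% = medium-only wells without cells; nearly all actives have a fitted effect of over 30% in size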
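HEK-293-SNCA-luc cells (1500/well) plated 24 h, then exposed 24 h to a dilution series; GF-AFC added 30 min at 37C, fluorescence 405/540 nm; normalised to medium-only and DMSO wells, Hill fit.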
* = called active by the depositor; i = inactive; ? = inconclusive; nt = not tested or not shown; [ ] = remark or other dose. Calls come from the whole dose curve; as a rule, active = well fitted curve in the direction sought with a large enough effect; inconclusive = small, poorly fitted or top-dose-only effect, or another doubt; inactive = no such curve, though single readings can be large; an effect the other way counts as inactive or inconclusive. Unless noted, % is set by controls: 0 for no effect and ±100 for the full control effect; potency is the fitted concentration of half-maximal effect.

Short forms: A = NIH3T3 tox; B = Luciferase inh; C = SNCA expr inh; D = GPT2 inh; E = HEK cytotox; F = HEK293 viab
1) O=C(c1cccs1)N1CCCc2cc(NS(=O)(=O)c3ccc(Br)cc3)ccc21
  A: nt | B: nt | C: ? | D: nt | E: nt | F: -19%

2) CC(=O)Nc1ccc(CN2CC3(C2)C(=O)Nc2ccccc23)cc1
  A: ? | B: nt | C: -7% | D: 1% | E: ? | F: -5%

3) Cc1cc(C)cc(Nc2nc(C)cc(=O)n2CC(=O)Nc2ccc(Br)cc2)c1
  A: ? | B: -1% | C: ? | D: ? | E: ? | F: -22%

4) Cc1nn(C)c2c1c(C(F)(F)F)cc(=O)n2C(C)C(=O)NCc1ccc(Cl)cc1 (stereo unspecified)
  A: nt | B: nt | C: 2% | D: nt | E: nt | F: 19%

5) CCCCN1CCC(CNC(=O)c2cccc(C3CCNC3)c2)CC1 (stereo unspecified)
  A: -13% | B: 6% | C: -3% | D: i | E: -18% | F: -20%

6) CCCNC(=O)C1=CC(c2ccc3c(c2)OCO3)=NS(=O)(=O)N1C
  A: nt | B: nt | C: 43%[activator] | D: nt | E: nt | F: -22%

7) N#CC1CCN(C(=O)c2nc(-c3ccc(F)cc3)c3cnccn23)CC1
  A: -29% | B: -12% | C: -21% | D: -67% | E: -13% | F: 12%

8) O=C(O)C1=NOC2CN(C(=O)c3cccc(Cl)c3)CC12 (stereo unspecified)
  A: i | B: nt | C: -13% | D: i | E: i | F: -4%

9) COc1cccc(NC(=O)C(C)n2c(=O)cc(C(F)(F)F)c3c(C)nn(C)c32)c1 (stereo unspecified)
  A: nt | B: nt | C: 23% | D: nt | E: nt | F: 10%

10) Cc1cc(C)n(CCCNC(=O)c2cccc(C3CCNC3)c2)n1 (stereo unspecified)
  A: -15% | B: 10% | C: ? | D: -14% | E: 1% | F: -25%

Only Luciferase inh, HEK cytotox and HEK293 viab, for some of the entries so far:
nr	SMILES	Luciferase inh	HEK cytotox	HEK293 viab
1	O=C(c1cccs1)N1CCCc2cc(NS(=O)(=O)c3ccc(Br)cc3)ccc21	nt	nt	-19%
2	CC(=O)Nc1ccc(CN2CC3(C2)C(=O)Nc2ccccc23)cc1	nt	?	-5%
3	Cc1cc(C)cc(Nc2nc(C)cc(=O)n2CC(=O)Nc2ccc(Br)cc2)c1	-1%	?	-22%
4	Cc1nn(C)c2c1c(C(F)(F)F)cc(=O)n2C(C)C(=O)NCc1ccc(Cl)cc1 (stereo unspecified)	nt	nt	19%
5	CCCCN1CCC(CNC(=O)c2cccc(C3CCNC3)c2)CC1 (stereo unspecified)	6%	-18%	-20%
6	CCCNC(=O)C1=CC(c2ccc3c(c2)OCO3)=NS(=O)(=O)N1C	nt	nt	-22%

Following part
Short forms: A = NIH3T3 tox; B = Luciferase inh; C = SNCA expr inh; D = GPT2 inh; E = HEK cytotox; F = HEK293 viab
11) O=C(NCCn1cccn1)c1ccc(C2CCNC2)cc1 (stereo unspecified)
  A: -10% | B: -12% | C: 25% | D: -16% | E: 0% | F: 5%

12) COCCCn1c(=N)c(C(=O)NCc2ccco2)cc2c(=O)n3ccccc3nc21
  A: nt | B: nt | C: 3% | D: nt | E: nt | F: ?

13) Cc1cnc(C2CCC2)n1CCNC(=O)c1nccn1C
  A: i | B: 4% | C: 5% | D: i | E: 5% | F: 0%

14) COc1ccc(CNC(=O)C(=O)NCC(c2cccnc2)N2CCN(c3ccccc3F)CC2)cc1 (stereo unspecified)
  A: nt | B: nt | C: ? | D: nt | E: nt | F: 7%

15) CCSc1nn(CC(=O)Nc2ccc(C(=O)OC)cc2)c(N)c1S(=O)(=O)c1ccc(C)cc1
  A: nt | B: nt | C: ? | D: nt | E: nt | F: -26%

16) COc1cc(F)ccc1-c1cc(-c2cn[nH]c2)c2cncn2c1
  A: 32µM* | B: 13%[172 µM] | C: ? | D: -3%[88.5 µM] | E: ? | F: -17%[87.6 µM]

17) Cc1nn(C)cc1C(=O)NCCn1c(C)cnc1C1CC1
  A: i | B: -3% | C: 0% | D: -1% | E: 7% | F: -1%

18) Cn1ccnc1CCOC(c1cc2nccc(C(=O)O)c2[nH]1)c1ccccc1Cl (stereo unspecified)
  A: nt | B: nt | C: nt | D: i | E: nt | F: 2%

19) CCC(C)n1c(=N)c(C(=O)NC2CCCCC2)cc2c(=O)n3ccccc3nc21 (stereo unspecified)
  A: nt | B: nt | C: 25% | D: nt | E: nt | F: ?

20) O=C1Nc2ccccc2C12CCN(Cc1ccc(C(F)(F)F)cc1)C2 (stereo unspecified)
  A: ? | B: nt | C: -22% | D: i | E: ? | F: -6%

Exported with each value named: 4 of the compounds above
(17) Cc1nn(C)cc1C(=O)NCCn1c(C)cnc1C1CC1
- NIH3T3 tox = i
- Luciferase inh = -3%
- SNCA expr inh = 0%
- GPT2 inh = -1%
- HEK cytotox = 7%
- HEK293 viab = -1%

(19) CCC(C)n1c(=N)c(C(=O)NC2CCCCC2)cc2c(=O)n3ccccc3nc21 (stereo unspecified)
- NIH3T3 tox = nt
- Luciferase inh = nt
- SNCA expr inh = 25%
- GPT2 inh = nt
- HEK cytotox = nt
- HEK293 viab = ?

(18) Cn1ccnc1CCOC(c1cc2nccc(C(=O)O)c2[nH]1)c1ccccc1Cl (stereo unspecified)
- NIH3T3 tox = nt
- Luciferase inh = nt
- SNCA expr inh = nt
- GPT2 inh = i
- HEK cytotox = nt
- HEK293 viab = 2%

(11) O=C(NCCn1cccn1)c1ccc(C2CCNC2)cc1 (stereo unspecified)
- NIH3T3 tox = -10%
- Luciferase inh = -12%
- SNCA expr inh = 25%
- GPT2 inh = -16%
- HEK cytotox = 0%
- HEK293 viab = 5%

Not all compounds are listed; the hit share may differ from the screen's.
